From PubChem BioAssay
DUX4 txn inh = inhibitors of DUX4-driven ZSCAN4 reporter expression, primary screen, 293T cells, Gaussia and Italica luciferase; 293T-iDUX4 ZSCAN4-Gaussia luciferase reporter, 24 h; stronger effect = lower value; activity change, negative = inhibition, % (no concentration beside the values); 37,000 tested, 0.8% active; AID 1224904, 2016;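 active = -10% or lower and over 25 points stronger than a control reporter; inconclusive = -10% or lower with a smaller gap; inactive = above -10%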;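 note: 0% = median of neutral control wells and -100% = median of positive control wells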
DUX4 txn inh difference = second read-out of DUX4 txn inh, no call of its own (marks repeat the call); Gaussia minus Italica difference, %; measured here: selective DUX4 reporter inhibition;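 worked out from the two reporters; negative = selective loss of the DUX4 reporter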
DUX4 txn inh control = second read-out of DUX4 txn inh, no call of its own (marks repeat the call); activity change, negative = inhibition, %; measured here: Italica tet-on control reporter;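 0 = neutral control and -100 = positive control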
Active calls of the source: *; ? = inconclusive; . = no result given.

DUX4 txn inh | DUX4 txn inh difference | DUX4 txn inh control | Structure
3 | 2 | 1.1 | C[C@H](CO)N1C[C@H](C)[C@H](CN(C)C(=O)Nc2cc(F)ccc2F)Oc2cc(-c3cccc(F)c3)ccc2S1(=O)=O
-3 | -3 | -0.2 | Cc1noc(C)c1S(=O)(=O)N(C)C[C@H]1OCCCC[C@@H](C)Oc2ccc(NC(=O)CCC(F)(F)F)cc2C(=O)N([C@@H](C)CO)C[C@@H]1C
1 | -3 | 3.7 | CCCNC(=O)[C@@H]1[C@@H](CO)[C@@H]2Cn3c(ccc(-c4cccc(OC)c4)c3=O)[C@@H]2N1C
11 | 12 | -0.6 | COCC(=O)N1[C@H](CO)[C@H](c2ccccc2-c2ccccc2)[C@@H]1C#N
? | . | . | C[C@H](NC(=O)[C@H]1[C@H](CO)[C@H]2Cn3c(cccc3=O)[C@H]2N1CC1CCCCC1)c1ccccc1
0 | -2 | 1.8 | O=C(c1ccccc1)N(CC1CCC1)C[C@@H]1N[C@H](CO)[C@@H]1c1ccccc1
? | . | . | C[C@H]1CN([C@@H](C)CO)C(=O)c2c(c3ccccc3n2C)-c2ccccc2CO[C@H]1CN(C)C(=O)CCC(F)(F)F
2 | 1 | 1.3 | CCN(C[C@H]1N[C@@H](CO)[C@@H]1c1ccccc1)C(=O)c1ccncc1
-9 | -2 | -7.5 | O=C(C[C@H]1C[C@@H]2c3cc(NS(=O)(=O)c4ccc(F)cc4)ccc3O[C@@H]2[C@H](CO)O1)NCc1ccc(Cl)cc1
10 | 6 | 3.9 | CCCN(C)C[C@@H]1Oc2cc(C#Cc3cccnc3)ccc2S(=O)(=O)N([C@@H](C)CO)C[C@@H]1C
0 | -3 | 2.8 | CN1C[C@@H]2[C@H](c3ccccc31)[C@H](CO)N2Cc1ccccc1Cl
4 | 3 | 0.9 | CC(=O)N1CC2(C1)[C@H](c1ccccc1)[C@@H](CO)N2Cc1cccc(Cl)c1
-7 | -10 | 2.4 | OC[C@H]1[C@@H](c2ccccc2)C2(CN(Cc3ccccc3)C2)N1Cc1ccncc1
? | . | . | COc1ccccc1S(=O)(=O)N1CC[C@@H]2[C@H]1c1cc(-c3ccc(F)cc3)ccc1N[C@@H]2CO
-5 | -16 | 11 | CN1[C@H](C(=O)NC2Cc3ccccc3C2)[C@@H](CO)[C@@H]2Cn3c(ccc(-c4ccncc4)c3=O)[C@@H]21
0 | 3 | -3.1 | CC(=O)N(C[C@H]1N[C@H](CO)[C@@H]1c1ccc(-c2cncnc2)cc1)C1CCCC1
0 | -8 | 7.5 | C[C@H](CO)N1C[C@H](C)[C@H](CN(C)Cc2cccnc2)OCc2ccccc2-c2ccccc2C1=O
? | . | . | N#Cc1ccc(-c2ccc3c(c2)[C@@H]2[C@@H](CCN2S(=O)(=O)c2ccccc2F)[C@H](CO)N3)cc1
1 | -2 | 3.1 | CCC(=O)N1[C@H](CO)[C@H](c2ccccc2-c2ccccc2)[C@@H]1C#N
-3 | -5 | 1.2 | O=C(NCC[C@@H]1CC[C@@H](NC(=O)c2ccc3c(c2)OCO3)[C@@H](CO)O1)Nc1cc(F)ccc1F
3 | -3 | 6.5 | N#C[C@H]1[C@H](c2ccc(C3=CCCC3)cc2)[C@@H](CO)N1C(=O)c1cccc(F)c1
20 | 9 | 11 | COc1cccc(C#Cc2ccc3c(c2)[C@H]2[C@H](CCN2C(=O)CC2CC2)[C@@H](CO)N3)c1
8 | 7 | 0.9 | O=C(C[C@@H]1C[C@H]2c3cc(NS(=O)(=O)c4ccc(F)cc4)ccc3O[C@H]2[C@H](CO)O1)NCCN1CCCCC1
-1 | 1 | -2.0 | CC(C)CC#Cc1ccc([C@@H]2[C@@H](CO)N3C(=O)CN(C(=O)NC4CCCCC4)C[C@@H]23)cc1
3 | 4 | -1.0 | Cc1ccc(S(=O)(=O)NCC[C@@H]2CC[C@H](NC(=O)c3cccnc3)[C@H](CO)O2)cc1
1 | 1 | 0.3 | CC(=O)NC[C@H]1[C@@H](c2ccc(-c3ccccc3)cc2)[C@@H](CO)N1C(=O)C1CC1
? | . | . | CN1c2ccc(C#Cc3cccnc3)cc2[C@@H]2[C@@H](CCN2C(=O)Cc2cccnc2)[C@H]1CO
4 | 5 | -0.6 | COc1cccc(S(=O)(=O)N(C)C[C@@H]2OCc3cnnn3CCCC(=O)N([C@@H](C)CO)C[C@@H]2C)c1
-1 | -4 | 2.9 | C[C@H]1CN([C@@H](C)CO)C(=O)c2cc(NS(=O)(=O)c3cccs3)ccc2O[C@@H]1CN(C)C(=O)Nc1ccc2c(c1)OCO2
-8 | -5 | -2.8 | Cc1cccc(-c2ccc([C@@H]3[C@H](CO)N4CCCCN(S(=O)(=O)c5cccs5)C[C@@H]34)cc2)c1
3 | -1 | 4.4 | C[C@@H]1CN([C@@H](C)CO)S(=O)(=O)c2ccc(C#CC3CCCC3)cc2O[C@@H]1CN(C)C(=O)Nc1cc(F)ccc1F
3 | -1 | 3.7 | O=C(C[C@H]1CC[C@H]2[C@@H](COC[C@@H](O)CN2S(=O)(=O)c2ccc(F)cc2)O1)N[C@@H]1CCN(Cc2ccccc2)C1
1 | 4 | -3.0 | C[C@@H]1CCCCO[C@@H](CN(C)C(=O)Nc2ccc(F)cc2)[C@H](C)CN([C@@H](C)CO)C(=O)c2cc(NC(=O)NC3CCCCC3)ccc2O1
12 | 8 | 3.9 | CCC(=O)N1CCC2(CC1)CN(S(C)(=O)=O)[C@@H](CO)c1[nH]c3cc(OC)ccc3c12
5 | 2 | 2.7 | CCS(=O)(=O)NCC[C@H]1CC[C@@H](NS(=O)(=O)c2ccccc2C)[C@H](CO)O1
2 | -1 | 3.5 | CO[C@H](CN(C)S(=O)(=O)c1ccc(F)cc1)[C@H](C)CN([C@@H](C)CO)S(=O)(=O)c1cccc(Cl)c1
9 | 13 | -3.7 | COc1ccccc1NC(=O)N[C@H]1CC[C@H](CC(=O)N[C@H](C)c2ccccc2)O[C@H]1CO
-1 | -4 | 2.4 | CCC(=O)N1C[C@@H](C)[C@H](OC)CN(C)C(=O)c2cc(NC(=O)c3cc(C)on3)ccc2OC[C@@H]1C
5 | 0 | 5.1 | Cc1cccc(S(=O)(=O)N2C[C@@H]3[C@H](c4ccccc42)[C@H](CO)N3C(=O)CC2CC2)c1
-7 | 0 | -7.0 | CCCNC(=O)N1CC(=O)N2[C@@H](CO)[C@@H](c3ccc(C#Cc4ccccc4)cc3)[C@@H]2C1

Random excerpt: six entries already listed, in no set order.
DUX4 txn inh | DUX4 txn inh difference | DUX4 txn inh control | Structure
5 | 0 | 5.1 | Cc1cccc(S(=O)(=O)N2C[C@@H]3[C@H](c4ccccc42)[C@H](CO)N3C(=O)CC2CC2)c1
5 | 2 | 2.7 | CCS(=O)(=O)NCC[C@H]1CC[C@@H](NS(=O)(=O)c2ccccc2C)[C@H](CO)O1
1 | 4 | -3.0 | C[C@@H]1CCCCO[C@@H](CN(C)C(=O)Nc2ccc(F)cc2)[C@H](C)CN([C@@H](C)CO)C(=O)c2cc(NC(=O)NC3CCCCC3)ccc2O1
12 | 8 | 3.9 | CCC(=O)N1CCC2(CC1)CN(S(C)(=O)=O)[C@@H](CO)c1[nH]c3cc(OC)ccc3c12
9 | 13 | -3.7 | COc1ccccc1NC(=O)N[C@H]1CC[C@H](CC(=O)N[C@H](C)c2ccccc2)O[C@H]1CO
-1 | -4 | 2.4 | CCC(=O)N1C[C@@H](C)[C@H](OC)CN(C)C(=O)c2cc(NC(=O)c3cc(C)on3)ccc2OC[C@@H]1C

Remaining list, next part:
DUX4 txn inh | DUX4 txn inh difference | DUX4 txn inh control | Structure
? | . | . | C[C@H](CO)N1C[C@H](C)[C@@H](CN(C)C(=O)Nc2cccc(C(F)(F)F)c2)OCc2ccccc2-c2c(n(C)c3ccccc23)C1=O
-4 | -1 | -3.3 | CO[C@H]1CN(C)C(=O)c2cc(NC(=O)c3cccc(F)c3)ccc2OC[C@H](C)N(C)C[C@H]1C
11 | 8 | 3.8 | C/C=C/c1ccc([C@@H]2[C@H](CO)N(C(=O)CN(C)C)C23CN(C(=O)C2CC2)C3)cc1
0 | 2 | -1.7 | CCNC(=O)[C@@H]1[C@@H](CO)[C@@H]2Cn3c(ccc(/C=C/c4ccccc4)c3=O)[C@H]1N2C(=O)c1ccncc1
4 | -1 | 4.6 | COCC(=O)Nc1ccc2c(c1)C(=O)N(C)[C@@H]1CC[C@H](CC(=O)NCC3CC3)O[C@@H]1CO2
3 | -2 | 4.5 | CC(C)NC(=O)N1[C@H](CO)[C@H]2c3ccccc3NC[C@H]21
-1 | -3 | 1.1 | CCCNC(=O)N1[C@H](CO)[C@@H]2c3ccccc3N(C(=O)c3cccnc3)C[C@@H]21
2 | -1 | 3.0 | C[C@@H]1CCCCO[C@@H](CN(C)C(=O)CCCN(C)C)[C@H](C)CN([C@@H](C)CO)C(=O)c2cc(NC(=O)Nc3cccc4ccccc34)ccc2O1
-1 | -1 | -0.5 | Cc1noc(C)c1NC(=O)Nc1ccc2c(c1)CC(=O)N([C@H](C)CO)C[C@@H](C)[C@@H](CN(C)C(=O)NC1CCCCC1)O2
14 | 5 | 9.0 | O=C(C[C@@H]1CC[C@H]2[C@@H](COC[C@@H](O)CN2C(=O)c2ccc3c(c2)OCO3)O1)NCCN1CCCCC1
-7 | -7 | 0.2 | CCC(=O)N1CC2(C1)[C@H](c1ccc(-c3cccc(F)c3)cc1)[C@@H](CO)N2CC1CC1
2 | 1 | 0.6 | O=C(CN1CCOCC1)NCC[C@H]1CC[C@H](NC(=O)c2ccc3c(c2)OCO3)[C@H](CO)O1
3 | 7 | -4.0 | O=C(C1CCC1)N1CC2(C1)[C@@H](c1ccccc1)[C@H](CO)N2C(=O)c1ccccn1
8 | 12 | -4.3 | C[C@@H]1CN([C@@H](C)CO)C(=O)c2cc(NC(=O)c3ccncc3)ccc2O[C@@H](C)CCCCO[C@@H]1CN(C)C(=O)C1CCCCC1
-3 | -1 | -1.2 | Cc1cccc(S(=O)(=O)N(C)C[C@@H]2OCc3cn(nn3)CCCC(=O)N([C@@H](C)CO)C[C@@H]2C)c1
3 | 1 | 2.5 | N#C[C@H]1[C@@H](c2ccc(C#CC3CC3)cc2)[C@@H](CO)N1C(=O)Cc1ccccn1
1 | -3 | 4.1 | COc1cc(CN2CC3(CN(C(=O)Nc4c(C)noc4C)C3)c3c([nH]c4cc(OC)ccc34)[C@H]2CO)cc(OC)c1
4 | 2 | 1.3 | CCC(=O)NC[C@@H]1[C@@H](c2ccc(C3=CCCC3)cc2)[C@@H](CO)N1CC1CC1
? | . | . | CC(C)NC(=O)N1[C@@H](CO)[C@@H](c2ccccc2)C12CN(Cc1ccc(Cl)cc1)C2
-2 | -3 | 1.1 | N#C[C@H]1[C@@H](c2ccc(C3=CCCC3)cc2)[C@@H](CO)N1C(=O)c1ccccn1
? | . | . | COc1ccc2c3c(n(C)c2c1)[C@@H](CO)NCC31CCN(Cc2cc(-c3ccccc3)on2)CC1
-4 | -3 | -1.3 | C[C@H](CO)N1C[C@H](C)[C@H](CN(C)C(=O)c2ccc3c(c2)OCO3)Oc2cc(-c3ccncc3)ccc2S1(=O)=O
1 | -1 | 1.5 | CC(C)C#Cc1ccc([C@H]2[C@@H](C#N)N(C(=O)CN(C)C)[C@H]2CO)cc1
-3 | -5 | 1.1 | CCN(C[C@H]1[C@H](c2ccc(-c3ccccc3)cc2)[C@H](CO)N1C(C)=O)C(C)=O
9 | -3 | 12 | CCCNC(=O)C[C@@H]1CC[C@@H]2[C@H](COC[C@H](O)CN2C(=O)c2ccc(F)cc2)O1
-3 | 0 | -2.4 | COC(=O)[C@@H]1[C@@H](CO)[C@@H]2Cn3c(ccc(-c4ccccc4OC)c3=O)[C@@H]2N1C(=O)c1cnccn1
5 | 1 | 4.0 | O=C(C[C@H]1CC[C@@H]2[C@H](COC[C@H](O)CN2C(=O)c2ccc3c(c2)OCO3)O1)NC1Cc2ccccc2C1
-1 | -5 | 3.2 | O=C(C[C@@H]1C[C@@H]2c3cc(NC(=O)Nc4ccc(C(F)(F)F)cc4)ccc3O[C@@H]2[C@H](CO)O1)NCc1cccnc1
0 | -2 | 2.1 | C[C@@H]1CCCCO[C@H](CN(C)Cc2ccc(C(F)(F)F)cc2)[C@H](C)CN([C@H](C)CO)C(=O)c2cc(NC(=O)CCCN(C)C)ccc2O1
0 | -3 | 2.8 | O=C(C1CC1)N1C[C@@H]2[C@H](c3ccccc31)[C@H](CO)N2C(=O)c1ccccn1
-7 | -7 | 0.0 | CC(=O)N1CCCCN2[C@H](CO)[C@@H](c3ccc(C#Cc4ccccc4F)cc3)[C@@H]2C1
4 | -2 | 6.4 | O=C(C[C@@H]1C[C@@H]2c3cc(NC(=O)NC4CCCC4)ccc3O[C@@H]2[C@@H](CO)O1)NCc1cccc(F)c1
6 | 3 | 3.3 | CC(=O)N1[C@@H]2c3cccc(=O)n3C[C@H]1[C@H](CO)[C@H]2C(=O)NC1CCCC1
-1 | 27 | -28 | COc1cccc(-c2ccc3c(c2)[C@H]2[C@H](CCN2C(=O)Cc2ccccc2)[C@@H](CO)N3)c1
1 | 4 | -3.1 | CC(C)CC#Cc1ccc([C@@H]2[C@@H](CO)N3C(=O)CN(C(=O)Nc4ccc(F)cc4)C[C@@H]23)cc1
-1 | -1 | -0.7 | O=C(Nc1ccc(F)cc1)N1C[C@H]2[C@@H](c3ccccc31)[C@H](CO)N2C(=O)Cc1ccncc1
? | . | . | O=C(C[C@H]1CC[C@@H]2[C@H](COC[C@H](O)CN2CC2CCCCC2)O1)NCc1ccc(Cl)cc1
-5 | 0 | -5.4 | C[C@@H]1CN([C@H](C)CO)C(=O)c2cccc(N(C)C)c2O[C@H]1CN(C)Cc1ccc2c(c1)OCO2
-4 | -4 | -0.1 | C/C=C/c1ccc([C@H]2[C@@H](CO)N(C(=O)CC)[C@@H]2CN(C(=O)C2CC2)C(C)C)cc1
16 | 4 | 12 | COCC(=O)N1CC(=O)N2[C@H](C1)[C@H](c1ccc(-c3cccnc3)cc1)[C@@H]2CO

Not all compounds are listed; count on the stated rates, not on these rows.
